Methyltransferases = Primary Screen for Target Class Profiling of Small Molecule Inhibitors of Methyltransferases | purified enzyme, MTase-Glo SAH luminescence; stronger effect = lower value | calls only at 40 µM | actives 3.9% (n = 25,000); active = -50% or lower on at least one of six enzymes; inconclusive = the cases between; inactive = as a rule above -30% on all six;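 note: enzymes were COMT GAMT GNMT HNMT NNMT and PNMT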
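Each enzyme was reacted with SAM and its substrate, with compounds tested once at 40 uM; SAH formed was read by MTase-Glo luminescence.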
Calls only; i = inactive; ? = inconclusive; + = active, no number. % is set by controls: 0 for no effect and ±100 for the full control effect. An excerpt; count on the stated rates, not on these rows.

SMILES	Methyltransferases
CC(C)CN(CC(=O)N(CCCN1CCCC1=O)CC(N)=O)C(=O)CNCCc1ccccc1F	?
O=C([C@@H]1C[C@H](Oc2cccnc2)CN1C(=O)c1cc2ccccc2[nH]1)N1CCCC1	i
CC1CCN(CCNS(=O)(=O)c2ccc3c(c2)oc(=O)n3C)CC1	i
CCC(C)NC(=O)c1ccc2c(=O)n(C)c3nnc(SCc4ccc(Cl)cc4)n3c2c1 (configuration not stated)	i
COc1ccc(OC)c(N2C(=O)c3cc4occc4n3CC2(C)C(=O)NC2CCCCCCC2)c1 (configuration not stated)	i
CCOC(=O)c1cc2n(n1)CC(C)(C(=O)NC1CCC(C)CC1)N(Cc1cccc(C)c1)C2=O (configuration not stated)	i
CNCCN1C(=O)CC[C@H]2CN(Cc3cc(C4CCCCC4)no3)CC[C@H]21	i
C[C@H]1[C@@H]2[C@H]3OC(=O)[C@@H](C)[C@@H]3CC[C@@]2(C)CC[C@@H]1NC(=O)Cc1ccccc1	i
CC1CC(C)CN(CCCN2C(=O)c3cc4sccc4n3CC2(C)C(=O)NC2CCCCCCC2)C1 (configuration not stated)	i
CC(C)C(=O)N1CCC(NCCOc2ccccc2Cl)CC1	i
CCOC(=O)c1cc2n(n1)CC(C)(C(=O)NC1CCCCC1)N(c1ccc(Cl)cc1)C2=O (configuration not stated)	i
C=C1CC2C(C)(CCC(=O)O)C(C(C)(C)O)CCC2(C)C2(C(=O)OC)C(=O)C(C)(O)C(=O)C12C (configuration not stated)	i
O=C(Cc1ccccc1)NCC1CN(Cc2ccncc2Cl)CC12CN(c1ccccc1)C2 (configuration not stated)	i
CC(=O)N[C@H]1[C@H](O[C@H]2CC[C@@]3(C)C(CC[C@]4(C)C3CC=C3C5CC(C)(C)CC[C@]5(C(=O)O)[C@H](O[C@@H]5O[C@H](CO)[C@@H](O)[C@H](O)[C@H]5O)C[C@]34C)C2(C)C)O[C@H](CO[C@@H]2OC[C@H](O)[C@H](O)[C@H]2O[C@@H]2OC[C@@H](O)[C@H](O)[C@H]2O)[C@@H](O)[C@@H]1O (some centres not stated)	i
COc1ccc(CNC(=O)CCc2nnc3n(Cc4ccccc4Cl)c(=O)c4ccccc4n23)cc1	i
Cc1ccc(NC(=O)N2CCC(c3nc(CCOCC4CC4)no3)C2)cc1C (configuration not stated)	i
CC1CCCCC1NC(=O)C1(C)Cn2c(cc3occc32)C(=O)N1CCCc1ccccc1 (configuration not stated)	i
CC1=CC(=O)CC(C)(C)[C@H]1/C=C/C(CO)O[C@@H]1O[C@H](CO)[C@@H](O)[C@H](O)[C@H]1O (some centres not stated)	i
CCCCCC(O)CCCC(=O)O (configuration not stated)	i
CCn1nccc1C(=O)N1CCC([C@H]2[C@@H](OC)CN2C(C)C)CC1	i
O=C(O)C1Cc2c([nH]c3ccccc23)C(c2ccc3c(c2)OCO3)N1 (configuration not stated)	i
Cc1cnc(C(=O)N[C@@H]2CCC[C@@H]2C(=O)NCc2cc(F)ccc2F)cn1	i
CCOc1ccccc1CN1C(=O)c2nc3ccccc3n2CC1(C)C(=O)NC1CCCC(C)C1C (configuration not stated)	i
COc1cccc(C(O)c2nc(C(=O)N3CCN(c4ccccn4)CC3)c(C)o2)c1 (configuration not stated)	i
Cc1cnc(C2CCC2)n1CCNC(=O)c1nccn1C	i
c1ccc(-c2n[nH]c(CC3CCNC3)n2)cc1 (configuration not stated)	i
O=C(CCl)N1CCC2(CC1)CC(c1cccc(C(F)(F)F)c1)=NO2	i
COc1ccc2nc(C[C@@H]3C[C@@H](C(C)C)[C@H](CNC(=O)NC4CCCCC4)C=C3C)[nH]c2c1	i
CCN1CCN(S(=O)(=O)c2cc(-c3nnc(-c4ccccc4)o3)ccc2OC)CC1	i
COc1cccc(CN2Cc3cc(NS(=O)(=O)c4ccccc4)ccc3OCC2=O)c1OC	i
Cc1ccc(Cn2c(=O)c3ccccc3n3c(CCC(=O)N4CCOCC4)nnc23)cc1	i
CCOC(=O)Cc1ccc(NC(=O)N2CCn3cccc3C2C)cc1 (configuration not stated)	i
COc1cccc(CN2C(=O)c3cc4sccc4n3CC2(C)C(=O)NC2CCCCC2C)c1OC (configuration not stated)	i
CC(=O)Oc1ccc(C2(c3ccc(OC(C)=O)cc3)Oc3ccccc3NC2=O)cc1	i
CCOc1ccc(CN2C(=O)c3c(C(=O)OC)ncn3CC2(C)C(=O)NC2CCCCCC2)cc1 (configuration not stated)	i
COc1ccccc1-c1nnc2n(Cc3ccc(F)cc3)c(=O)c3ccccc3n12	i
CC(C)CCN1CC(C(=O)NCCc2ccncc2)C2(CCOCC2)C1 (configuration not stated)	i
COc1ccc(C2(O)c3c(ccc4c3OC(C)(CCC=C(C)C)C=C4)NC(=O)C2OC)cc1 (configuration not stated)	i
Cc1cccc(Nc2nc(-c3ccncc3)cs2)c1	+
O=C(Nc1ccc(S(=O)(=O)Nc2ccccc2Cl)c(Cl)c1)c1ccccn1	i
CN1C(=O)c2cc(C(=O)NCc3ccccc3Br)nn2CC1(C)C(=O)NC1CCCC1 (configuration not stated)	i
CC(C)N(Cc1nccn1C)C(=O)CC(c1ccccc1)c1ccccc1F (configuration not stated)	i
C[C@@H]1O[C@@H](O[C@H]2[C@H](O[C@H]3CC[C@@]4(C)C(CC[C@]5(C)C4CC=C4[C@@H]6CC(C)(C)CC[C@]6(C(=O)O[C@@H]6OC[C@H](O)[C@H](O)[C@H]6O[C@@H]6O[C@@H](C)[C@H](O[C@@H]7O[C@H](CO)[C@@H](O)[C@H](O)[C@H]7O)[C@H](O)[C@H]6O)[C@H](O)C[C@]45C)C3(C)C)O[C@H](CO)[C@@H](O[C@@H]3OC[C@@H](O)[C@H](O)[C@H]3O)[C@@H]2O)[C@H](O)[C@H](O)[C@H]1O (some centres not stated)	i
C=CC1(C)CC(O)C(C(=C)C(=O)OC)C(O)C1C(=C)CO (configuration not stated)	i
CCN(CC)CCOC(=O)C1(C2CCCCC2)CCCCC1	i
CCC(C)NC(=O)c1ccc2c(=O)n(C)c3nnc(SCc4cccc(C)c4)n3c2c1 (configuration not stated)	i
CN1CCC(c2cn(C)c3ccc(OS(=O)(=O)c4c(F)cccc4F)cc23)CC1	i
Cc1cccc(CN2C(=O)c3ccc(-c4ccco4)n3CC2(C)C(=O)NCc2ccc(Cl)cc2)c1 (configuration not stated)	i
COC[C@]1(O)CCN(C(=O)CSCc2ccccc2C)CC1(C)C	i
O=C(CCC1CCCC1)Nc1ccc(-c2nnc3n2CCCC3)cc1	i
The list continues:
SMILES	Methyltransferases
COc1cccc(CN2CCC[C@@H](O)[C@H](NC(=O)c3ccc(OCc4ccccc4)cc3)C2)c1	i
CC1(C(=O)NC2CCCCCCC2)Cn2c(ccc2-c2ccco2)C(=O)N1CCc1ccccc1 (configuration not stated)	i
O=S(=O)(c1ccccc1)N1CC(c2nc(Cc3cccnc3)no2)C1	i
Cc1nnc(CNC(=O)C2CCC(=O)N(CCN3CCOCC3)C2)o1 (configuration not stated)	i
O=C(NC1CCN(c2ccc3nnc(-c4ccccc4)n3n2)CC1)C1CCCC1	i
COc1ccc([C@@H](NC(=O)c2cc3ncccn3n2)C2CC(O)C2)cn1 (some centres not stated)	i
CCc1ccccc1N1C(=O)c2cc(-c3ccccc3)nn2CC1(C)C(=O)NCCCOC (configuration not stated)	i
Cc1cn2c(=O)cc(CN3CC[C@@](C)(O)[C@@H](O)C3)nc2s1	i
COc1c(-c2ccc(O)cc2)cc(OC)c2c1oc1cc(O)c(OC3OC(CO)C(O)C3O)cc12 (configuration not stated)	i
CCCN1CCN(CCCNC(=O)c2cc3n(n2)CC(C)(C(=O)NCc2ccccc2)N(C)C3=O)CC1 (configuration not stated)	i
CCn1c(=O)n(CC)c2cc(S(=O)(=O)Nc3ccc(F)cc3)ccc21	i
O=C(CCc1ccccc1)N1CCCC(CN2CCCC2)CC1 (configuration not stated)	i
CN(C)[C@@H]1CN(C(=O)CCc2ccccc2)C[C@H]1CO	i
CC1(C(=O)NC2CCCCCC2)Cn2c(cc3occc32)C(=O)N1CCCN1CCCCCC1 (configuration not stated)	i
C=Cc1ccc(Cn2nc3n(CC(C)C)c(=O)c4ccccc4n3c2=O)cc1	i
Cc1ccncc1-c1c(C)nn2c1N(Cc1ccc(C(=O)O)cc1)CCC2	i
COc1ccc2cc3n(c2c1)CC(C)(C(=O)NC1CCCCC1)N(CCCc1ccccc1)C3=O (configuration not stated)	i
CC(C)OCCCn1c(=O)c2ccccc2n2c(=O)n(Cc3ccc(F)cc3)nc12	i
COc1ccc(CC2CCOC3(CCN(S(=O)(=O)c4c(C)nn(C)c4C)CC3)C2)cc1 (configuration not stated)	i
CC(CCc1ccc(O)cc1)O[C@@H]1O[C@H](CO[C@@H]2OC(CO)[C@H](O)[C@H]2O)[C@@H](O)[C@H](O)[C@H]1O (some centres not stated)	i
CC(C)CCn1c(=O)c2ccc(C(=O)NCC(C)C)cc2n2c(=O)n(Cc3cccc(Cl)c3)nc12	i
CC1CC(C)CN(S(=O)(=O)c2ccc3c(c2)oc(=O)n3CC(=O)NCc2cccnc2)C1 (configuration not stated)	i
CC1CC(=O)C2=C(O1)OC1(C)CCC3C(C)(C)C4OC4C(=O)C3(C)C1C2 (configuration not stated)	+
CCC1(C(=O)O)CCCCC(=O)N1 (configuration not stated)	i
COc1ccccc1N1CCN([C@@H]2[C@H](O)[C@H](CO)O[C@@H]2CN(Cc2ccc(F)cc2)Cc2ccc(F)cc2)CC1	i
O=C(CCc1nnc2n(Cc3ccc(F)cc3)c(=O)c3ccccc3n12)NCc1ccccc1	i
CN(C)CCN1C(=O)c2cc3occc3n2CC1(C)C(=O)NC1CCCCCCC1 (configuration not stated)	i
COc1ccc(-c2nnc(-c3ccccc3)o2)cc1S(=O)(=O)N1CCSCC1	i
COC(=O)C1=CO[C@@H](O[C@@H]2O[C@H](COC(=O)/C=C/c3cc(OC)c(O)c(OC)c3)[C@@H](O)[C@H](O)[C@H]2O)[C@@H]2C(CO)=CC[C@H]12	+
O=C(CSc1nnc2n(Cc3ccccc3)c(=O)c3ccccc3n12)Nc1cc(F)ccc1F	i
CNC(=O)c1noc([C@@H]2CC(F)(F)CN2C(=O)CCOC)n1	i
CCCC1c2cccn2CCN1C(=O)Nc1ccc(C)c(C)c1 (configuration not stated)	i
CC1(C(=O)NC2CCCCC2)Cn2c(cc3sccc32)C(=O)N1CCc1ccccc1 (configuration not stated)	i
COc1ccc(-c2n[nH]n3c2nc(=O)c2ccc(C(=O)NCCc4ccc(OC)c(OC)c4)cc23)cc1	i
C[C@]12C=C[C@@]3(CCC4[C@](C)(CO)CCC[C@@]4(C)C3CC1)C2 (some centres not stated)	i
COc1ccc(-c2cc3n(n2)CC(C)(C(=O)NC2CCCCC2)N(CCc2ccccc2)C3=O)cc1 (configuration not stated)	i
Cc1nn(C)c(C)c1CN(Cc1ccnc2ccccc12)C1CC1	i
COc1cc(/C=C/CO)ccc1O[C@@H]1O[C@H](CO)[C@@H](O)[C@H](O)[C@H]1O	i
O=C(C1CCCCC1)N1CCC(OC2CCN(Cc3cccnc3)CC2)CC1	i
CCC(COC)n1nnc2c(Nc3ccc(OC)cc3C)nc(C)cc21 (configuration not stated)	i
COc1ccc(-c2cnc(-c3cccc4c3-c3ccccc3C4=O)o2)cc1	i
CC(C)N1Cc2cc(C(=O)NC3CCN(Cc4ccccc4)CC3)sc2C1	i
COc1ccc(CNC(=O)Cn2nc3n(Cc4ccc(C)cc4)c(=O)c4ccccc4n3c2=O)cc1	i
O=C(CN1CC2CC(C1)[C@H]1CCCC(=O)N1C2)N1CCN(c2ccc(Cl)cc2)CC1 (some centres not stated)	i
COc1ccc(CN2C(=O)c3cc4ccc(OC)cc4n3CC2(C)C(=O)NC2CCCC2)cc1 (configuration not stated)	i
O=C(CCc1nnn2c1CN(C(=O)c1cccc3[nH]ccc13)CC2)N1CCCC1	i
Cc1cc2c(cc1S(=O)(=O)N1CCN(c3cccc(C)c3C)CC1)n(C)c(=O)n2C	i
Cc1cn2cc(CC(=O)N3CCC4(CC3)CN(Cc3ccc(-n5nccn5)cc3Cl)C4)nc2s1	i
CC1(C(=O)N2CCC(C3CCN(S(C)(=O)=O)CC3)C2)CCOCC1 (configuration not stated)	i
CCN1C(=O)Cc2cc(C(=O)Nc3ccc(F)cc3)ccc21	i
Going on with the list.
SMILES	Methyltransferases
Cc1ccc(CNC(=O)C2CCCN(c3cnn(Cc4ccccc4)c(=O)c3)C2)o1 (configuration not stated)	i
CC(C)(C)c1nc(C(=O)NCc2cccnc2)n2ccccc12	i
CCC(=O)N1CCCC1c1nc(CCOCC2CCCC2)no1 (configuration not stated)	i
COc1ccc(CCNC(=O)C(C)C2CCOCC2)cc1OC (configuration not stated)	i
COC(=O)c1c(NC(=O)c2ccccc2)c2cc(NC3CCOCC3)cnc2n1CC1CCCO1 (configuration not stated)	i

Screening results deposited in PubChem by National Center for Advancing Translational Sciences (NCATS).
